Screening data from PubChem.
KCNQ2 inh – KCNQ2 channel blockers in CHO-K1 cells – cell-based, FluxOR thallium flux, B-score, primary screen (AID 2156) | O88943 | 20 min; stronger effect = lower value; only compounds with negative scores are shown here; some inactives read as strong as hits | B-score at 10 µM | actives 1.1% (n = 310,000);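 active means fluorescence ratio B-score at most minus 3 library SDs, with starting brightness B-score within 2 library SDs, cut at about -5.5 in these data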
Target sequence (O88943 whole entry, looked up): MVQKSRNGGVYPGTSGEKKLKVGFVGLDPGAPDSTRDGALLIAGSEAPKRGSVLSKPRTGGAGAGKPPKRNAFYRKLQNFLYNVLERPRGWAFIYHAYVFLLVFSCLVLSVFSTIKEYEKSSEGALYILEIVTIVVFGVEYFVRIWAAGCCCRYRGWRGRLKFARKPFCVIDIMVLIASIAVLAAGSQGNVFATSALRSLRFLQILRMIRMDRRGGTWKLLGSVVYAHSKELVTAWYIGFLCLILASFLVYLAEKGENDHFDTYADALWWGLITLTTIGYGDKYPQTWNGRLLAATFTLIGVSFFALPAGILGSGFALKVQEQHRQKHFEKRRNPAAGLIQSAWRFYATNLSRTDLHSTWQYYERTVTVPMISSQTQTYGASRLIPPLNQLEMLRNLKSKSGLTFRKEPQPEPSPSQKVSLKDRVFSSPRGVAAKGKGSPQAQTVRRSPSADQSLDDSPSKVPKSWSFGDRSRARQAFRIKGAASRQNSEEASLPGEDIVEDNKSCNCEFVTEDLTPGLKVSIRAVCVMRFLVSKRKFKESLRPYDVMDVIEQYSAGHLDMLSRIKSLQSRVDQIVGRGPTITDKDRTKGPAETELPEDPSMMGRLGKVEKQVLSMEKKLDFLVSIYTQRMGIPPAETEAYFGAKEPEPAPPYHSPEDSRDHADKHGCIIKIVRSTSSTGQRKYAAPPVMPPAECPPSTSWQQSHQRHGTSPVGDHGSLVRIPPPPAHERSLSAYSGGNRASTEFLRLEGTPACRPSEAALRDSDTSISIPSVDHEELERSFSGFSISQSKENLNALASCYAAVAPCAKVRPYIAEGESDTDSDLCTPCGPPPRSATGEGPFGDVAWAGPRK
KCNQ2 inh baseline – further read-out of KCNQ2 inh, marked with its call; B-score; measured here: initial fluorescence intensity artifact check;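 brightness before thallium and not channel activity; 0 = typical well and far values either way flag optical interference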
* = called active by the depositor; i = inactive. Some of the compounds tested; rates above refer to the full screens.

KCNQ2 inh,KCNQ2 inh baseline,mol
i,2.2,COc1cc(OC)cc(-c2cc3nc(C)c(CCC(=O)NCc4ccccc4)c(C)n3n2)c1
i,-1.8,Cc1ccc(N2CC(C(=O)Nc3ccccc3C(=O)NC3CCCCC3)CC2=O)cc1C (stereo not drawn)
i,0.18,CC(C)C[C@H](NC(=O)c1nc[nH]c1C(=O)N1CCc2ccccc2C1)C(=O)OC(C)(C)C
i,1.4,CC(=O)N1CCN(C(=S)c2ccc(-c3ccc(Cl)cc3)o2)CC1
i,0.29,O=C1/C(=C/N(C(=O)c2ccco2)c2ccc(Cl)cc2)Sc2ccccc21
i,-0.87,COc1ccc(CCNC(=O)C(=O)NCC2CCCN2S(=O)(=O)c2cc(C)ccc2C)cc1 (stereo not drawn)
i,0.19,CC(=O)c1cc(CN2CCN(CCC(C)C)C(CCO)C2)cs1 (stereo not drawn)
i,0.75,O=C(Cc1ccccc1[N+](=O)[O-])NCc1ccco1
i,-0.01,CCOC(=O)c1ccc(NC(=O)C(C)Sc2nc(O)c(-c3ccccc3)c(=O)[nH]2)cc1 (stereo not drawn)
i,-1.7,Cc1sc2ncn(Cc3ccccc3F)c(=O)c2c1C
i,-0.16,Cc1cccc(CSCc2ccc(C(=O)NC3CCCC3)o2)c1
-5.6*,1.6*,O=C(COc1cccc(C(F)(F)F)c1)NCC(c1ccco1)N1CCCCC1 (stereo not drawn)
i,1.1,O=C(NCc1cccnc1)c1cc(S(=O)(=O)N2CCCCC2)ccc1Cl
i,-2,O=C1N(Cc2cccc(Cl)c2)C[C@@H]2C[C@@H](c3cccc4cccnc34)N3CCC[C@@]123
i,1,CCOc1nc(C)ccc1-c1noc(C)n1
i,4,Cc1ccc(N2C(=O)C3CCC(C)(C2=O)C3(C)C)cc1C (stereo not drawn)
i,4.1,CC(C)N(C(=O)/C=C/c1cccc([N+](=O)[O-])c1)C(C)C
i,0.23,COc1cc(Cl)c(CN2CCC(CCC(=O)NC3CC3)CC2)cc1OC
i,2.8,Cc1ccc(OCC(=O)Nc2ccc(CN3CCCCC3)cc2)c(C)c1
i,0.77,CCn1c(SCC(=O)Nc2cccc(NC(C)=O)c2)nc2c([nH]c3ccccc32)c1=O
i,2.1,CC1CCN(c2nc3ccccc3nc2C(C#N)C(=O)NC2CCCCC2)CC1 (stereo not drawn)
i,-0.55,O=C1CC(N(CCc2ccccc2)C(=S)Nc2ccccc2)C(=O)N1c1ccc(Br)cc1 (stereo not drawn)
i,1.2,COc1ccccc1C(=O)OCCN=C1NS(=O)(=O)c2ccccc21
i,0.9,COc1cccc(NC(=O)CN(C)C(=O)Cn2[nH]c(=O)c3ccccc3c2=O)c1
i,-0.02,O=C(CCc1ccccc1)Nc1ccc(Cl)cn1

The results go on:
KCNQ2 inh,KCNQ2 inh baseline,mol
i,0.34,CCOc1ccc(NC(=O)COc2ccc(C(=O)NC(C)c3ccc(S(N)(=O)=O)cc3)cc2OC)cc1 (stereo not drawn)
i,2,Cc1ccc(/C=N/N2CCN(Cc3ccc(Cl)cc3)CC2)o1
-7.1*,0.03*,CN(C)/N=C/C=C1\CCC/C(=C\c2ccc(F)c(F)c2)C1=O
i,-1.4,CC(C)CC(=O)NC(=S)NCCc1ccccc1
i,1.1,Cn1cc(C(=O)c2cccc(Cl)c2Cl)cc1C(=O)O
i,-0.8,O=C(Nc1nccs1)c1cc2sccc2n1Cc1ccc(F)cc1
i,0.29,CC1C(=O)N2CCCc3cc(S(=O)(=O)NCc4ccc(Cl)cc4)cc1c32 (stereo not drawn)
i,1.2,COc1ccc(Cl)cc1N(CC(=O)N(C)C)S(=O)(=O)c1ccc(C)c([N+](=O)[O-])c1
-7.3*,0.17*,CCN(CC)S(=O)(=O)c1ccc(N2CCOCC2)c(NC(=S)NC(=O)c2ccco2)c1
i,-0.04,CC(=O)c1cccc(NC(=O)C2CCN(S(=O)(=O)c3ccc(C)cc3)CC2)c1
i,0.22,Cc1cc2nc(-c3ccc(SCC(=O)N4CCN(C(=O)c5ccco5)CC4)nc3)[nH]c2cc1C
i,0.96,COC(=O)CNC(c1ccccc1)c1cc(Cl)ccc1NC(=O)c1cccc(Cl)c1 (stereo not drawn)
i,-0.07,COc1cccc(/C=C2\C(=O)C(=O)c3ccccc32)c1
i,1.5,Cc1nnc(SCc2ccccc2)nc1/C=C/NOCc1ccc(Cl)cc1Cl
i,0.37,CCOc1ccc(C(=O)Nc2ccc(S(=O)(=O)NCC3CCCO3)cc2)cc1OCC (stereo not drawn)
i,2,CCC1CCCCN1CCNC(=O)C1CCN(S(=O)(=O)c2cccc3nsnc23)CC1 (stereo not drawn)
i,-0.62,COC(=O)C1CCN(CC(=O)Nc2cc(Cl)ccc2OC)CC1
-6.2*,0.17*,CNC[C@@H](Cc1ccccc1)NC[C@@H](CC1CCCCC1)NCCCc1ccccc1
i,0.78,Cc1nc(C(=O)NNC(=O)Nc2ccc(Cl)cc2)cs1
i,0.37,NC(=O)c1ccc(N2CCN(c3ccccc3O)CC2)c([N+](=O)[O-])c1
i,-1.3,COc1cc(OC)cc(C(=O)Nc2nnc(-c3cccnc3)o2)c1
i,-1.3,COc1ccccc1C(=O)Nc1sc2c(c1C(=O)NCc1ccco1)CCCC2
i,-0.43,Cc1sc2nc(COC(=O)C(NC(=O)c3ccc(Cl)cc3Cl)C(C)C)[nH]c(=O)c2c1C (stereo not drawn)
i,-0.62,Cc1ccc(NC(=O)CN2CCN(CCN=CC3=C(O)CC(c4ccc(C)cc4)CC3=O)CC2)cc1 (stereo not drawn)
i,1.1,COc1ccccc1C(=O)n1nc(-c2cccnc2)nc1NCc1ccccc1

Profiles, looked up by structure.
COc1cc(OC)cc(C(=O)Nc2nnc(-c3cccnc3)o2)c1 is listed with KCNQ2 inh = i; KCNQ2 inh baseline = -1.3
Cc1ccc(OCC(=O)Nc2ccc(CN3CCCCC3)cc2)c(C)c1 is listed with KCNQ2 inh = i; KCNQ2 inh baseline = 2.8

New compounds follow.
KCNQ2 inh,KCNQ2 inh baseline,mol
i,-0.92,CC(C)NC(=O)c1sc2nc3c(c(-c4cccs4)c2c1N)CN(C)CC3
i,1.3,Cc1cccc(Oc2cc([N+](=O)[O-])cc3c2C(=O)Nc2ccccc2O3)c1
i,0.95,COc1ccc(/C=C2\SC(=S)N(CCC(=O)N3CCCCC3)C2=O)cc1
i,0.3,CC(=O)NN1C(=O)c2ccccc2NC1c1ccccn1 (stereo not drawn)
i,5.4,COC(=O)c1cc(Br)ccc1-c1ccc(/C=N/n2nnnc2N)o1
i,0.35,N#Cc1c(Nc2ccccc2)sc(C(=O)c2ccccc2)c1N
i,-0.77,Cc1cc2occ(CC(=O)NC3=NCCS3)c2cc1C(C)C
i,-1.6,CCC(C(=O)NC(C)(C)C)N(C(=O)Cn1nnc(-c2ccccc2F)n1)c1cccc2c1CCCC2 (stereo not drawn)
i,-0.06,CCSc1nc2sc3c(c2c(=O)[nH]1)CC(C)(CC)OC3 (stereo not drawn)
i,-1.2,Cc1ccccc1NC(=O)CCCCCN1C(=O)[C@@H]2Cc3ccccc3CN2C1=O
i,-0.82,CCCc1cc(=O)oc2cc(C)cc(OCC(=O)NCCN3CCOCC3)c12
i,-0.6,O=Cc1c(OCc2ccccc2)ccc2ccccc12
i,0.04,COc1ccccc1N1CCN(C(=O)c2sc3nc(C)nc(N4CCN(c5ccccn5)CC4)c3c2C)CC1
i,0.16,COc1ccc2cc3[n+](cc2c1OC)CCc1cc2c(cc1-3)OCO2
i,-0.67,CN(C)C(CNC(=O)c1ccccc1OCc1ccc(Cl)cc1)c1ccco1 (stereo not drawn)
i,1.7,CCCN1C2CCCC1CC(NC(=O)NC13CC4CC(CC(C4)C1)C3)C2 (stereo not drawn)
i,0.09,Cc1cc(CNC(=O)CC2C(=O)NCCN2CC(C)(C)C)nn1C (stereo not drawn)
i,0.09,C/C(=N\NC(N)=S)C1=CCC2C3CC[C@H]4CC(O)CC[C@]4(C)C3CC[C@]12C (stereo partly drawn)
i,2.3,O=C(Cc1ccccc1)Nc1nc(-c2cccs2)cs1
i,-1.6,O=C(Nc1ccc(F)cc1F)c1cc(-c2ccco2)nc2ccccc12
i,-3,CC(C)[C@@H](COc1ccccc1)N1CCN(Cc2ccccc2)CCC1=O
i,-0.01,COC(=O)c1ccccc1NC(=O)CSc1nc(O)cc(=O)n1C1CCCC1
i,1.6,Cc1ccc(C(=O)CSc2nnc(Cn3nnc4ccccc43)n2C)cc1
i,-0.03,CCCCOc1ccc(C(=O)N2CCNC(=O)C2)cc1
i,-0.08,Cc1ccc(NC(=O)C2CCCN(S(=O)(=O)c3ccc4[nH]c(=O)ccc4c3)C2)nc1 (stereo not drawn)

(continued)
KCNQ2 inh,KCNQ2 inh baseline,mol
i,-0.78,CC(=O)Nc1ccc(N2C(=O)C3C4CC(=O)C(c5ccccc54)C3C2=O)cc1 (stereo not drawn)
i,-0.29,C/C(=N\NC(=O)c1ccccc1F)c1cccc(NC(=O)c2ccccc2)c1
i,0.52,O=C(OCC(=O)N1CCN(c2ccccc2)CC1)c1ccc2ccccc2n1
i,0.02,COc1cccc(N2CC(C(=O)Nc3nnc(SCC(=O)Nc4cc(C)on4)s3)CC2=O)c1 (stereo not drawn)
i,2.2,CC1(C)Cc2ccccc2C(N/N=C/c2ccc([N+](=O)[O-])cc2)=N1
i,-0.04,Brc1cccc(CN2CCN(c3ncccn3)CC2)c1
i,-0.28,CSc1ncccc1C(=O)N1CCN(S(=O)(=O)c2cc(C)ccc2C)CC1
i,-2.9,C/C(=N\Nc1nc(N2CCCCC2)nc(N2CCOCC2)n1)c1ccccc1O
i,-0.77,O=C(NCc1csc2ccc(Cl)cc12)Nc1cccc2ccccc12
i,-0.41,CS(=O)(=O)c1ccc(Cl)c(NC(=O)COc2ccc3c(c2)CCC3)c1
i,0.71,COCCN(C(=O)CCCC(=O)Nc1ccccn1)C(C(=O)NC1CCCCC1)c1ccc(C)cc1 (stereo not drawn)
i,0.4,COc1ccccc1CNC(=O)COC(=O)C1CCN(S(=O)(=O)c2ccc(C)c(C)c2)CC1
i,-0.05,Cc1cccc(-c2cc3nc4c(c(N5CCCC(O)C5)n3n2)CCC4)c1 (stereo not drawn)
i,1.7,O=C(c1cccc(F)c1)N1CCN(S(=O)(=O)c2ccccc2)CC1
i,1.1,COc1ccccc1-n1c(SCC(=O)N2CCCCC2)nc(O)c(Cc2ccccc2)c1=O
i,-0.41,CCOCCCN(CCC#N)C(=O)C1CCN(S(=O)(=O)c2ccc(-n3cnnn3)cc2)CC1
i,1.2,O=[N+]([O-])c1ccc(OCCOCCOc2ccc([N+](=O)[O-])cc2)cc1
i,0.01,N#Cc1nc(COc2ccccc2Cl)oc1NCc1ccc(F)cc1
i,-1.5,Cc1ccc(/C=N/N2CCN(c3ccccc3)CC2)cc1
i,-1,O=C(CCn1nnc2ccccc2c1=O)N[C@H](C(=O)O)c1ccccc1
i,-0.72,CCOC(=O)NC(NCc1ccccc1Cl)(C(F)(F)F)C(F)(F)F
i,2.8,CCc1ccc2c(Cl)c(C(=O)N/N=C/c3c[nH]c4ccccc34)sc2c1
i,-1.1,Cc1ccc(S(=O)(=O)CCSc2n[nH]c(=O)n2-c2ccc3c(c2)OCCO3)cc1
i,1.2,COc1cc(C(=O)Nc2ccc3ccccc3c2)cc(OC)c1OC
i,-1.3,COc1cc(-c2cc(-c3ccc(F)cc3)nc(N)c2C#N)ccc1O

(continued)
KCNQ2 inh,KCNQ2 inh baseline,mol
i,2,CCOC(=O)N1CCC(N2CCCC(CO)(Cc3cccc(OC)c3)C2)CC1 (stereo not drawn)
i,0.05,COC(=O)c1c(-c2ccsc2)oc2ccc(-c3cc(OC)c(OC)c(OC)c3)cc12
i,1.5,COC(=O)c1ccc(C2/C(=C(\O)c3ccc4c(c3)OCCO4)C(=O)C(=O)N2CCCN2CCOCC2)cc1 (stereo not drawn)
i,-2.5,O=C(Nc1nc2c(F)cccc2s1)C1CC1
i,0.5,Cc1ccc(C)c(NC(=O)C(OC(=O)c2cnc(C)cn2)c2ccccc2)c1 (stereo not drawn)
i,-1.6,COc1ccc(CCNC(=O)c2cc(-c3ccco3)on2)cc1OC
i,-0.61,Cc1ccc2[nH]c3c(=O)n(CCC4=CCCCC4)cnc3c2c1
i,0.96,O=C(NCc1ccccc1)C(c1ccco1)N(C(=O)c1csnn1)C1CC1 (stereo not drawn)
i,-1.8,C=CCNC(=O)c1ccc(Cn2c(=S)[nH]c3cc4c(cc3c2=O)OCO4)cc1
-6*,-1.8*,COC(=O)c1ccc([C@H](NC(=O)c2ccco2)[C@]2(C)C[C@H]2C2CCCCC2)cc1
i,-3.4,C=CCn1c(C)cc(C(=O)CSc2nnc(NCc3ccccc3)s2)c1C

14 of the compounds above, in CSV form.
SMILES,KCNQ2 inh,KCNQ2 inh baseline
O=C(CCn1nnc2ccccc2c1=O)N[C@H](C(=O)O)c1ccccc1,i,-1
CCOC(=O)NC(NCc1ccccc1Cl)(C(F)(F)F)C(F)(F)F,i,-0.72
CCc1ccc2c(Cl)c(C(=O)N/N=C/c3c[nH]c4ccccc34)sc2c1,i,2.8
Cc1ccc(S(=O)(=O)CCSc2n[nH]c(=O)n2-c2ccc3c(c2)OCCO3)cc1,i,-1.1
COc1cc(C(=O)Nc2ccc3ccccc3c2)cc(OC)c1OC,i,1.2
COc1cc(-c2cc(-c3ccc(F)cc3)nc(N)c2C#N)ccc1O,i,-1.3
CCOC(=O)N1CCC(N2CCCC(CO)(Cc3cccc(OC)c3)C2)CC1 (stereo not drawn),i,2
COC(=O)c1c(-c2ccsc2)oc2ccc(-c3cc(OC)c(OC)c(OC)c3)cc12,i,0.05
COC(=O)c1ccc(C2/C(=C(\O)c3ccc4c(c3)OCCO4)C(=O)C(=O)N2CCCN2CCOCC2)cc1 (stereo not drawn),i,1.5
O=C(Nc1nc2c(F)cccc2s1)C1CC1,i,-2.5
Cc1ccc(C)c(NC(=O)C(OC(=O)c2cnc(C)cn2)c2ccccc2)c1 (stereo not drawn),i,0.5
COc1ccc(CCNC(=O)c2cc(-c3ccco3)on2)cc1OC,i,-1.6
Cc1ccc2[nH]c3c(=O)n(CCC4=CCCCC4)cnc3c2c1,i,-0.61
O=C(NCc1ccccc1)C(c1ccco1)N(C(=O)c1csnn1)C1CC1 (stereo not drawn),i,0.96
